RGS16-Gao: regulators of human RGS16-Galphao interaction; AID 1441; 220,000 tested, 0.38% active; O15492+P09471; binding response (% of control), % at 10 µM; bead-based flow cytometry RGS16-Galphao binding, fluorescence; actives lie on both sides;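 active = below 25% or above 175%, edge rows of some plates excepted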;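 note: Galphao activated by GDP with aluminum fluoride before binding; 100% = wells without compound and 0% = beads without RGS; some results beyond the cut were filed as inactive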
Target sequence (O15492 whole entry, looked up): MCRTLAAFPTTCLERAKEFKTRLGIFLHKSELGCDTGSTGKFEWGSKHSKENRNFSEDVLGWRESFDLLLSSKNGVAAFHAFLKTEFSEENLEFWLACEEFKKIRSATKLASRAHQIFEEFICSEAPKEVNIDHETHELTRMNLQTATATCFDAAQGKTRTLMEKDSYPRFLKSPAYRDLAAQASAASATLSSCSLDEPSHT
Target sequence (P09471 whole entry, looked up): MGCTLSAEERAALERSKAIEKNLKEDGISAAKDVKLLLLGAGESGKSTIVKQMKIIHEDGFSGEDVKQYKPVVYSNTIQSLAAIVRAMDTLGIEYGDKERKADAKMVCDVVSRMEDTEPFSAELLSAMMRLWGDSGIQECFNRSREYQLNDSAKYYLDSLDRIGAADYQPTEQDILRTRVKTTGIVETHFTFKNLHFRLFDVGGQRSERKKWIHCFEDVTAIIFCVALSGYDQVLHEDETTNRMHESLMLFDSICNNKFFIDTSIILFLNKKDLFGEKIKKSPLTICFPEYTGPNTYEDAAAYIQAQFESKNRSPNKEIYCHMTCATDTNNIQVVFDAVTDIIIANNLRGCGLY
Insulin prom inh: TRM-6 insulin promoter activity inhibition; TRM-6 cells (human fetal islet line), insulin promoter-eGFP reporter, imaging; reporter expression induced with tamoxifen; inhibition, % at 2 µM; 130,000 tested, 0.9% active; AID 1273;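 active = inhibition above the mean plus 3 SD, with well images judged a real hit on visual review, cut at about 60% in these data, passing the limit was not always enough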
GALR2 ag: agonists of human galanin receptor 2 (GALR2); activation, %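 (tested at 5 µM)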; GALR2-expressing cells, agonist activation read-out; 140,000 tested, 0.48% active;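 active = above mean plus 3 SD of all compounds, about 5% in these data, not always enough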;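 note: 0% = vehicle buffer wells and 100% = reference agonist at full effect; tested in CHO reporter cells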
Target sequence (O43603 whole entry, looked up): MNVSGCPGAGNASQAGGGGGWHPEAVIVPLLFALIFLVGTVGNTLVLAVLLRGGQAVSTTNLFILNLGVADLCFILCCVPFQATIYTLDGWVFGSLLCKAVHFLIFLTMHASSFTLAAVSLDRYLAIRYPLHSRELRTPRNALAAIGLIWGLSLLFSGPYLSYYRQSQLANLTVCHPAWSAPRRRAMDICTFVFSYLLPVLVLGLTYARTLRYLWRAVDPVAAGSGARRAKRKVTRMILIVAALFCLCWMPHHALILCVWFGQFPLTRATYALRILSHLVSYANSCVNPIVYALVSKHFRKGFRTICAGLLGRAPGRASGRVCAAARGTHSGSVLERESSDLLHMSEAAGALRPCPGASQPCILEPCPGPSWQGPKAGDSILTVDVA
HSV augment: HSV replication enhancement | HSV replication augmentation in cells, fold increase | maximum fold increase | 220,000 tested, 0.005% active | AID 1956;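 active = peak rise of 1.5-fold or more in the series; tested in PC3 cells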;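 note: first round at 10 µM; read as green reporter fluorescence; hits show the peak of a series up to 25 µM; 1 = signal of infected wells without compound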
PKD1 kinase inh: PKD1 (human) kinase inhibition; PKD1 kinase fluorescence polarization assay; 200,000 tested, 0.056% active; AID 797; inhibition, %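 (about 10 µM by stock and volumes)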; Q15139;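 active = inhibition of 50% or more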;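 note: controls were vehicle for no effect and a reference inhibitor for full effect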
Insulin prom inh cell count: further read-out of Insulin prom inh, marked with its call; normalized cell count, %; measured here: cell count, toxicity; reference of the scale not given here;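 cells exposed to compound for 48 h; stained nuclei by imaging scaled within each plate; lower means fewer cells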
HSV augment primary fold: recorded beside HSV augment, whose call it bears; fold increase; compound at 10 µM; measured here: primary screen fold increase 10 uM; tested in PC3 cells;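 GFP signal in the first replicate; 1 = infected wells without compound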
Starred values were filed as active, the others as inactive; i = inactive; / = not tested or not shown.

Every second line gives: RGS16-Gao	Insulin prom inh	Insulin prom inh cell count	GALR2 ag	HSV augment	HSV augment primary fold	PKD1 kinase inh
1) Cc1c(Cc2ccccc2)c(=O)oc2c(O)c(O)ccc12
    93	/	/	/	i	0.98	0
2) CCOc1ccc(Cl)cc1S(=O)(=O)N1CCCC1
    101	-31	128	-1.6	i	1	-13
3) O=C(Nc1ccccn1)c1ccc(NC(=O)c2ccco2)cc1
    104	33	102	-0.5	i	0.91	-6
4) CCCC(C)C(=O)Nc1nc(C)c(-c2csc(Nc3ccc(Cl)cc3)n2)s1 (stereo unspecified)
    90	-27	112	-3.5	i	0.81	-6
5) COc1ccc(N(CC(=O)NN=C2CCCC2)S(=O)(=O)c2ccccc2)cc1Cl
    104	/	/	0.8	i	0.9	-5
6) CC(C)c1ccc(NC(=O)CNS(=O)(=O)c2ccc(F)cc2)cc1
    98	41	92	/	i	1.4	7
7) O=C(NC1CCN(Cc2ccccc2)CC1)c1cc(-c2ccccn2)nc2ccccc12
    102	-20	142	-1.0	i	0.91	-1
8) Cc1ccc(Cl)c(OCC(=O)Nc2sc(C)c(C)c2C#N)c1
    103	/	/	-1.4	i	1	0
9) O=C1CSc2nc3ccccc3n21
    97	0	219	-1.0	i	0.92	-6
10) NC1(N)OC(CN2C(=O)c3ccccc3C2=O)CS1 (stereo unspecified)
    103	/	/	-2.8	i	0.78	5
11) CCn1c(SCC(=O)Nc2ncc(C(F)(F)F)cc2Cl)nnc1-c1cccc(C)c1
    104	/	/	0.2	i	1	-13
12) COc1ccnc(Oc2ccc3ccccc3c2)c1C#N
    97	-14	76	-0.5	/	/	-15
13) CC(SC1CCCC1)C(=O)Nc1ccnn1C(C)C (stereo unspecified)
    14	/	/	-1.0	i	0.74	-6
14) Cc1nn(C(C)(C)C)c(NC(=O)c2ccc(Cl)cc2Cl)c1Br
    102	/	/	/	i	0.91	/
15) Cc1ccc(C)c(-n2nnnc2SCC(=O)c2ccc3c(c2)NC(=O)CO3)c1
    99	-19	93	-3.0	i	0.89	-9
16) CC1(C)Cc2c(C#N)c(N)sc(=S)c2CO1
    93	29	119	-0.4	i	1.2	-8
17) COCCNC(=O)c1ccccc1NC(=O)c1cccc([N+](=O)[O-])c1C
    103	15	81	/	i	1	-3
18) CCc1ccc2[nH]c3nc(SCC(=O)NNC(=O)c4ccc(C(C)(C)C)cc4)nnc3c2c1
    97	-12	116	-3.5	i	0.77	0
19) O=C(Nc1ccc(-c2nc3cccnc3s2)cc1)c1ccco1
    103	/	/	1.0	i	0.86	-2
20) CCSc1nnc(NC(=O)C2Cc3ccccc3CN2C(=O)c2ccco2)s1 (stereo unspecified)
    93	/	/	-2.8	i	0.98	0
21) Cc1ccn2cc(CNC(=O)c3ccc(Br)o3)nc2c1
    105	/	/	-4.0	i	0.98	-5
22) CC(C)(C)c1ccc(CCC2OCC(CN3CCOCC3)O2)cc1 (stereo unspecified)
    99	/	/	/	i	0.88	/
23) CCN(Cc1ccccc1)C(c1cc2ccc(C)cc2[nH]c1=O)c1nnnn1CCOC (stereo unspecified)
    99	-100	78	-3.5	i	0.85	-9
24) Cc1ccc(OCc2nc(C#N)c(N3CCN(Cc4ccccc4)CC3)o2)cc1
    98	/	/	-1.7	i	0.96	-1
25) CCc1cccc(CC)c1NC(=O)C1CC(=O)N(c2ccc3c(c2)OCCO3)C1 (stereo unspecified)
    -578*	30	126	-1.1	i	0.96	3
26) COC(=O)c1cc(NCc2ccc3c(c2)OCO3)ccc1N1CCOCC1
    91	/	/	-2.7	i	1.1	4
27) O=C1CN(C(=O)COC(=O)c2ccc[n+]([O-])c2)c2ccccc2N1
    71	11	50	/	i	0.93	1
28) O=C(CN1CCN(Cc2cccc(Cl)c2)C1=O)NCC1CCCO1 (stereo unspecified)
    101	/	/	-1.3	i	1	-4
29) COCc1nnc(NC(=O)c2cc(Cl)ccc2OC)s1
    107	-38	186	0.8	i	0.85	-6
30) CC(C)c1nnc(NC(=O)CCC(=O)NC2CCCCCCC2)s1
    101	44	42	-3.6	i	1	-9
31) CC(C)N(C(=O)COC(=O)c1ccc(O)cc1)C(C)C
    103	11	74	-0.8	i	0.84	0
32) COc1ccc(OC)c(S(=O)(=O)Nc2cc(Cl)cc(Cl)c2)c1
    111	33	106	-0.2	i	1.1	0
33) Fc1cccc(F)c1-n1c(CN2CCCC2)csc1=S
    101	/	/	/	i	1.1	-3
34) C=C(C)CN(CC)c1nc(N)c(C#N)c(CC#N)c1C#N
    97	-40	50	0.8	i	0.97	-4
35) O=C(c1ccc2c(=O)n3c(nc2c1)CCCCC3)N1CCc2ccccc21
    105	/	/	/	i	0.95	/
36) Cc1cccc(S(=O)(=O)N2CN(Cc3ccco3)c3nc4ccccc4nc32)c1
    94	23	156	-2.4	i	1.5	10
37) COc1ccc(CN(C(=O)c2ccco2)C2CC(C)N(C)CC2C)cc1 (stereo unspecified)
    122	-44	48	-1.9	i	0.94	-7
38) Cc1cc(C)cc(N(CC(=O)NC2CC3CCC2C3)S(C)(=O)=O)c1 (stereo unspecified)
    86	/	/	-2.4	i	0.99	3
39) CCCC[N+](CC#CCO)(CC#Cc1ccccc1)CCCC
    105	/	/	/	i	0.98	/
40) C/C(=N\NC(=O)CSCc1ccc([N+](=O)[O-])cc1)c1cccc(Br)c1
    110	-50	81	-2.2	i	0.9	7
41) CC(=O)Nc1ccc(S(=O)(=O)NC(C)C(=O)NCCc2ccc(F)cc2)cc1 (stereo unspecified)
    104	-123	87	/	i	0.99	-2
42) O=C(CN1C(=O)NC2(CCOc3ccccc32)C1=O)Nc1ccc(F)c(F)c1F (stereo unspecified)
    101	0	83	/	i	0.99	-2
43) CCC(Sc1nc(N)cc(=O)[nH]1)C(=O)NC(C(=O)OC)c1ccccc1 (stereo unspecified)
    102	15	146	-0.6	i	0.93	-7
44) O=C(CCSc1nnc(-c2ccco2)o1)Nc1ccccc1
    103	45	67	-0.8	i	0.92	2
45) Cc1cccn2cc(-c3ccc(F)cc3)cc12
    106	/	/	/	i	0.96	7
46) CCCN(CC(=O)Nc1ccc(Cl)cc1Cl)Cc1cc(=O)n2ccsc2n1
    103	-37	78	/	i	1	0
47) Cc1ccc(CCNC(=O)c2cc(-c3ccncc3)nc3ccccc23)cc1
    84	/	/	/	i	0.84	/
48) CN1CCN(c2nc(NCCOC34CC5CC(CC(C5)C3)C4)nc(OCC(F)(F)F)n2)CC1
    111	/	/	0.1	/	/	-4
49) COc1ccc(Cn2c(C3CC3)nc3ccc(NC(=O)C4CC4)cc3c2=O)cc1
    96	0	102	-1.4	i	0.67	-1
50) NS(=O)(=O)c1cccc(NC(=O)COC(=O)C2(c3cccc(F)c3)CCCC2)c1
    111	-27	84	-0.5	i	1	3
51) NC1=NC(=O)C2(COC(c3cccnc3)OC2)S1 (stereo unspecified)
    100	-82	42	/	i	0.96	-7
52) Cc1ccccc1N(C(=O)CCC(=O)Nc1ccccn1)C(C(=O)NC(C)C)c1ccc(O)cc1 (stereo unspecified)
    100	-45	145	-0.7	i	0.86	-6
53) c1ccc(-n2nnnc2SCc2cccc3nsnc23)cc1
    101	/	/	-1.4	i	1	-4
54) COc1ccc(OC)c(Nc2nc(-c3ccccc3O)nc3ccccc23)c1
    104	/	/	/	i	0.96	10
55) CCCCC(=O)Nc1ccc(NC(=O)c2cc(OC)c(OC)c(OC)c2)cn1
    98	55	187	0.3	i	0.98	0
56) C/C(=N\Nc1ccc(C(F)(F)F)cc1[N+](=O)[O-])C(C)C
    88	20	120	0.4	i	1	6
57) CCOc1ccc(-n2c(=O)[nH]cc(C(=O)N3CCCc4ccccc43)c2=O)cc1
    93	-36	68	0.2	i	1.1	-2
58) COc1ccccc1-n1c(=O)[nH]c2c(C(N)=O)nc(C3CCCCC3)nc21
    106	/	/	0.9	i	0.87	3
59) Cc1ccc(SCC(=O)N2CCC(C(N)=O)CC2)cc1
    100	61	56	/	i	0.87	5
60) O=C(/C=C/c1ccco1)Nc1ccc(-c2nc3ccccc3[nH]2)cc1
    60	-19	23	3.6	i	0.74	-15

Part of the list above in order of count of non-hydrogen atoms, high to low:
Every second line gives: RGS16-Gao	Insulin prom inh	Insulin prom inh cell count	GALR2 ag	HSV augment	HSV augment primary fold	PKD1 kinase inh
48) CN1CCN(c2nc(NCCOC34CC5CC(CC(C5)C3)C4)nc(OCC(F)(F)F)n2)CC1
    111	/	/	0.1	/	/	-4
49) COc1ccc(Cn2c(C3CC3)nc3ccc(NC(=O)C4CC4)cc3c2=O)cc1
    96	0	102	-1.4	i	0.67	-1
54) COc1ccc(OC)c(Nc2nc(-c3ccccc3O)nc3ccccc23)c1
    104	/	/	/	i	0.96	10
59) Cc1ccc(SCC(=O)N2CCC(C(N)=O)CC2)cc1
    100	61	56	/	i	0.87	5

The list goes on:
Every second line gives: RGS16-Gao	Insulin prom inh	Insulin prom inh cell count	GALR2 ag	HSV augment	HSV augment primary fold	PKD1 kinase inh
61) Cc1cc(C(=O)COc2cccnc2[N+](=O)[O-])c(C)n1-c1ccccc1
    89	0	106	0.4	i	0.99	-2
62) O=C(c1ccc(Cl)cc1)N(Cc1ccc(Br)cc1)N1C(=O)CCC1=O
    97	-3	122	/	i	1	8
63) COc1cc(OC)c(C2C(C(=O)O)c3ccccc3C(=O)N2C)cc1OC (stereo unspecified)
    101	/	/	-1.9	i	1.1	4
64) CCCCSc1nc2c(=O)[nH][nH]c(=O)c2n1Cc1ccccc1
    104	19	67	-2.7	i	0.83	-7
65) CCOC(=O)N1CCN(S(=O)(=O)c2ccc(C)cc2)C1c1ccc(OC)cc1 (stereo unspecified)
    103	/	/	1.0	/	/	-6
66) COc1ccc(N2CCC(CNC(=O)Nc3ccc(C)c(C)c3)C2)cc1 (stereo unspecified)
    98	45	130	-1.6	/	/	-6
67) CCOCCCNS(=O)(=O)c1ccc(-n2cnnn2)c(OC)c1
    102	-31	144	-2.2	i	0.87	4
68) Cc1ccc2[nH]c(-c3cccc(N)c3)cc2c1
    95	9	144	-0.8	i	1	5
69) CCc1ccc(/C=N\n2cnnc2)cc1
    105	/	/	/	i	0.95	/
70) CNC(=S)N(CCc1c(C)[nH]c2ccc(Cl)cc12)Cc1cccs1
    102	-58	77	/	i	0.99	-4
71) COc1cccc(CN(C)Cc2nc(C3CC3)no2)c1
    100	/	/	/	i	0.99	-4
72) Cc1c(NC(=S)SCc2ccccc2)c(=O)n(-c2ccccc2)n1C
    104	10	123	/	i	0.93	2
73) Cc1ccc(NC(=O)C2OCCc3ccccc32)cc1Cl (stereo unspecified)
    105	/	/	/	i	0.94	-7
74) Fc1ccccc1NC(=S)NCCc1ccccc1
    100	-23	59	-1.6	i	0.91	17
75) COc1ccc(-c2cnn3c4c(c(C)nc23)CCN4C(C)C)cc1OC
    100	/	/	-1.7	i	0.85	3

Single values from above:
For PKD1 kinase inh, `CCOCCCNS(=O)(=O)c1ccc(-n2cnnn2)c(OC)c1` has 4
For HSV augment primary fold, `COc1ccc(-c2cnn3c4c(c(C)nc23)CCN4C(C)C)cc1OC` has 0.85
For HSV augment primary fold, `Cc1ccc(NC(=O)C2OCCc3ccccc32)cc1Cl` (stereo unspecified) has 0.94

(cont.)
Every second line gives: RGS16-Gao	Insulin prom inh	Insulin prom inh cell count	GALR2 ag	HSV augment	HSV augment primary fold	PKD1 kinase inh
76) Cc1sc2nc(C(C)Sc3n[nH]c(N)n3)[nH]c(=O)c2c1C (stereo unspecified)
    97	/	/	/	i	1	-9
77) CCn1c(SCC(=O)N2CCC(C(N)=O)(N3CCCCC3)CC2)nnc1-c1ccccc1
    102	28	73	-1.3	i	0.99	-3
78) COc1ccc(CC(=O)NCc2nnc(SCc3ccc([N+](=O)[O-])cc3)n2C)cc1
    82	/	/	/	i	0.96	-4
79) O=C1CC(Nc2ccc(N3CCOCC3)cc2)C(=O)N1C1CCCCC1 (stereo unspecified)
    103	-193	84	-2.9	i	1	-12
